Screening results (PubChem BioAssay)
Ecoli rRNA inh: inhibitors of bacterial rRNA selective over humanized ribosomes; E. coli WT GFP vs humanized-ribosome RFP mutants, fluorescence, 24 h; active compounds read low; DMSO median 0, no signal -100; hit rate 1.6% among 350,000; GFP signal change (wild-type ribosome), % (no concentration beside the values);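 active = significant combined selectivity score with lowered wild-type GFP, culture density cut under 30%, mutant RFP and density less affected; inactive = any of these conditions unmet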; also: one replicate is shown; some compounds called inactive have numbers as strong as hits
Beta cell apopt: beta cell apoptosis inhibition; hit rate 0.8% among 300,000; AID 435005; protection from apoptosis, % (concentration not given with the values); INS-1E cytokine-induced death, ATP luminescence, 48 h; percent of positive-control rescue, neutral wells zero;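 active = all replicates at 75% or more, or half of them and the mean; inconclusive = half reach 75% but not the mean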;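 also: 0% = cytokine-treated negative control wells and 100% = positive control rescue; higher means more ATP so stronger rescue from cytokine killing; wells of about 40 µL received 100 nL stock; the first replicate is given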
ALR H2O2 inh: blocks human ALR sulfhydryl oxidase activity | purified ALR, DTT oxidation, H2O2 HRP-luminol luminescence | inhibition, % (concentration not given with the values) | hit rate 3.8% among 290,000;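 active = mean and each replicate at 75% or more; inconclusive = only one of the two met; inactive = neither met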;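 also: stock transfer was 7.5 nL into about 7.5 µL; 0% = neutral wells and 100% = wells with inactivated enzyme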
Target sequence (P55789 whole entry, looked up): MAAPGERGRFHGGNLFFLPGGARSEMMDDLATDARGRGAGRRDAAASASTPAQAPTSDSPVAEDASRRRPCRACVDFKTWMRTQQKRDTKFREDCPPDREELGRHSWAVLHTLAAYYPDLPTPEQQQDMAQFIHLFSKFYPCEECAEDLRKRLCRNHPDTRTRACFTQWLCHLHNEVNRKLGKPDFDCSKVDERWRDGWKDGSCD
FGF22 binding: binders of recombinant human FGF22 by thermal shift; calls only at 9.99 µM; SYPRO orange fluorescence; percent of sucrose octasulfate shift, DMSO zero; hit rate 1.5% among 340,000;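 active = melting point raised past a set limit in the mean and every replicate; inconclusive = no clear call; three in four hits are not shown here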
Target sequence (Q9HCT0 whole entry, looked up): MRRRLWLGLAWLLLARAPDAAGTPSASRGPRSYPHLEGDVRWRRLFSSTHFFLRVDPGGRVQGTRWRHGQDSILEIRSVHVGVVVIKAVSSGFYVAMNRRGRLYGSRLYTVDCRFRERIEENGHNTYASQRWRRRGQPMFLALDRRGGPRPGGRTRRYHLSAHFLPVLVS
Calb FLC: affects C. albicans growth with fluconazole. C. albicans CaCi-2 (fluconazole-resistant clinical isolate) + fluconazole, Alamar Blue growth, 48 h. growth inhibition, % (no concentration beside the values). hit rate 0.57% among 300,000;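 active = most replicates above 75%; inconclusive = exactly half above 75%; inactive = most below 75%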;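 also: all wells also contain fluconazole at 8 µg/ml as a sub-toxic cotreatment; 0% = median of DMSO wells and 100% = median of geldanamycin control wells; wells of about 8 µL received 7.5 nL stock; the first replicate is given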
RanGTP-Imp inh: inhibitors of RanGTP-importin-beta interaction, primary screen, biochemical, FRET, CFP-Ran, YFP-importin-beta, homogeneous. cell-free CFP-Ran/YFP-importin-beta FRET ratio. hit rate 1.1% among 300,000. inhibition, % (concentration not given with the values);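 active = most replicates above 15%; inconclusive = exactly half above 15%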;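 also: 0% = DMSO wells and 100% = Ran loaded with GDP instead of GTP; wells of about 40 µL received 100 nL stock; the first replicate is given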
T cruzi repl: T. cruzi replication inhibition. hit rate 1.4% among 300,000. T. cruzi beta-gal in NIH3T3, luminescence, 90 h. inhibition, % (no concentration beside the values). AID 1885;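 active = mean inhibition across valid replicates above about 55%, limit read from the data; inconclusive = mean below that limit but half or more replicates reach it; inactive = mean below it, under half of replicates reach it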;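 also: signal also drops with host cell toxicity which is not excluded here; 0% = plate median of DMSO wells and 100% = zero luminescence signal; higher percent means less beta-gal luminescence so fewer parasites; stock transfer was 50 nL into about 50 µL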
AF4-AF9 inh: inhibitors of human MLL-AF4/AF9 interaction; P42568; AlphaScreen, biotin-AF4 peptide binding to FLAG-AF9; inhibition, % at 10 µM; hit rate 0.47% among 350,000;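 active = every replicate reaching a set inhibition limit, whatever the replicate mean, cut at about 25% in these data; inconclusive = mean inhibition reaches that limit but some replicates miss it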;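 also: 0% = plate neutral control median and 100% = total signal loss; the record names both 10 and 1 µM as test concentration; the first replicate is given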
Target sequence (P42568 whole entry, looked up): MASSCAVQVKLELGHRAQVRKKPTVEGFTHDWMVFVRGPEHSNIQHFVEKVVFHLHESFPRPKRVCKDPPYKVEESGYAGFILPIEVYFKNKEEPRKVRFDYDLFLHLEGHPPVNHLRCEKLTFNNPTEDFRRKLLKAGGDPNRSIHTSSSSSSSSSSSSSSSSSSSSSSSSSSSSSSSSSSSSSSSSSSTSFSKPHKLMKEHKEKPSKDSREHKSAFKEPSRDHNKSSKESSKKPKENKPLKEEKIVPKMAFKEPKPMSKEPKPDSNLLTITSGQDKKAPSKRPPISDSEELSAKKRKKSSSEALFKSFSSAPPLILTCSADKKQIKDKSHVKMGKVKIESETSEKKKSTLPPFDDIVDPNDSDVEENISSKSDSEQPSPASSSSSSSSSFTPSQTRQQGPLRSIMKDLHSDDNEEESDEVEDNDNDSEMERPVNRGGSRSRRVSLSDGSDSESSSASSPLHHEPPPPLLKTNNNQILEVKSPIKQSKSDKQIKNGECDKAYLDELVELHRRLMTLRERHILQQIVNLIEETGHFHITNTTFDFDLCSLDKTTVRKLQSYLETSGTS
Ecoli rRNA inh OD600: further read-out of Ecoli rRNA inh, marked with its call; OD600 change, %; measured here: OD600 growth;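 optical density of the mix in the first replicate; 0 = DMSO median and -100 = no signal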
Ecoli rRNA inh RFP: further read-out of Ecoli rRNA inh, marked with its call; RFP signal change, %; measured here: RFP humanized mutant strains;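 first replicate; 0 = DMSO median and -100 = no signal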
Starred values were filed as active, the others as inactive; i = inactive; ? = inconclusive; / = not tested or not shown. Not all compounds are listed, so the mix of outcomes need not match the whole.

SMILES	Ecoli rRNA inh	Ecoli rRNA inh OD600	Ecoli rRNA inh RFP	Beta cell apopt	ALR H2O2 inh	FGF22 binding	Calb FLC	RanGTP-Imp inh	T cruzi repl	AF4-AF9 inh
NS(=O)(=O)c1ccc(NC(=O)COC(=O)COc2ccc3ccccc3c2)cc1	-1	4	-1.5	-4	/	i	?	-3.0	-4	-2.6
Cc1cccc(NC(=O)c2nc[nH]c2C(=O)N[C@@H](Cc2ccccc2)C(=O)OCc2ccccc2)c1	5	17	-4.1	-1	-1	i	3	?	3	0.0
CCn1nnnc1SCC(=O)Nc1sc(C)c(C)c1C#N	/	/	/	0	-3	/	1	-0.8	-4	/
Cc1ccc(NC(=O)CCc2nc(-c3cccs3)no2)c(Br)c1	2	-1	-2.2	-5	-11	i	-17	2.1	0	-16
N#C/C(=C\Nc1ccc2cn[nH]c2c1)c1nc(-c2ccc(Cl)cc2)cs1	-3	1	-1.1	64	/	i	11	-0.7	38	-2.7
C=CCSc1ncccc1C(=O)O	/	/	/	-6	-20	/	-5	-1.7	-9	/
COc1ccc(C)cc1S(=O)(=O)n1nc(C)cc1C	1	-9	1.1	-6	-17	i	-9	-0.9	2	-1.2
NS(=O)(=O)c1ccc2nc(NC(=O)c3ccc(Br)o3)sc2c1	31	7	21	-5	-5	i	25	?	4	-2.6
O=C(COC(=O)c1oc2ccccc2c1CSc1ccc(Cl)cc1)NC1CCCC1	1	-11	-2.5	-4	-4	i	5	1.4	25	2.2
COc1ccc2nc(C)cc(SCC(=O)N/N=C/c3c(OC)ccc4ccccc34)c2c1	9	8	-0.1	-9	/	i	17	-5.4	-17	-2.4
O=C(c1cc([N+](=O)[O-])ccc1N1CCOCC1)N1CCN(c2ccccc2)CC1	4	3	1.2	53	13	i	3	5.5	10	1.6
CSc1ncccc1C(=O)N1CCCC(C(=O)c2cc(F)ccc2F)C1 (stereo not given)	0	-3	2.0	-4	-2	i	22	4.9	14	-0.7
CC1Cc2ccccc2N1CC(=O)NC(=O)NCc1ccccc1 (stereo not given)	0	1	6.0	-6	74	i	-6	/	0	3.5
CC1(C)CC(NC(=O)c2ccc(Cl)cc2)CC(C)(C)N1	25	18	3.2	/	-7	i	12	-0.6	-18	-2.8
CCc1nc2nc(C)c(NS(=O)(=O)c3ccc(Cl)cc3)c(=O)n2[nH]1	2	0	-0.3	-5	/	i	-4	2.2	-11	-4.7
c1ccc(-c2ccc(OCCCNC3CCCC3)cc2)cc1	-10	-26	29	/	-13	i	28	-1.7	60*	7.1
Cc1c(N(C(=O)c2cc(=O)[nH]c3ccccc23)C(C)C)c(=O)n(-c2ccccc2)n1C	8	1	-1.0	-1	-6	i	0	5.7	-14	1.4
Cc1ccc(NC(=O)Nc2ccc(F)c(Cl)c2)cc1	-33	-48	-7.3	19	-3	i	5	-3.3	15	-12
Cc1cc(C)c(NC(=O)COc2ccccc2C(=O)Nc2ccc3c(c2)oc2ccccc23)c(C)c1	5	27	5.5	-3	-9	/	-5	0.0	9	/
COc1ccc(S(=O)(=O)N2CCC(C(=O)NCCN3CCOCC3)CC2)cc1	3	19	7.0	/	-7	i	-2	2.4	-12	2.2
COc1ccccc1CN(C)C(=O)C1COc2ccccc2O1 (stereo not given)	/	/	/	0	100*	/	2	4.9	-19	/
Cn1nc(-c2ccc(C(=O)Nc3ccc(F)cc3)cc2)c2ccccc2c1=O	/	/	/	/	-9	/	?	-1.1	1	/
Cc1c(NC(=O)c2cccc(NC(=O)Cc3ccc(Cl)cc3)c2)c(=O)n(-c2ccccc2)n1C	-1	9	-1.0	-2	0	i	/	/	/	-3.2
COC(=O)c1ccccc1NC(=S)NC(=O)c1ccccc1F	/	/	/	1	97*	/	-4	0.8	-19	/
Cc1cc(-c2ccccc2)c2c(=O)[nH][nH]c2n1	/	/	/	/	5	/	22	1.9	-13	/
(continued)
SMILES	Ecoli rRNA inh	Ecoli rRNA inh OD600	Ecoli rRNA inh RFP	Beta cell apopt	ALR H2O2 inh	FGF22 binding	Calb FLC	RanGTP-Imp inh	T cruzi repl	AF4-AF9 inh
CN(C)S(=O)(=O)c1ccc(Cl)c(NC(=O)COC(=O)c2ccc(O)cc2)c1	-15	8	-0.6	-1	-3	i	?	0.8	5	-0.8
COc1ccc(-n2c(N)c(C(=O)NCc3ccco3)sc2=S)cc1	/	/	/	0	8	/	-4	3.2	12	/
Cc1cc(C(=O)Nc2cnc3ccccc3c2)ccc1[N+](=O)[O-]	12	18	2.7	-5	3	i	-3	0.6	7	-6.4
CCN(CC)S(=O)(=O)c1ccc(N2CCOCC2)c(NC(=O)COc2ccccc2C#N)c1	15	12	0.5	5	1	i	2	?	8	-1.7
CCOC(=O)c1cc(C(=O)NCc2ccc(Cl)cc2Cl)nn1C	-25	-26	-11	4	?	i	?	0.4	-18	-3.9
Cc1ccc(OCCNC(=O)c2ccc(NC(=O)CC3SC(N4CCCC4)=NC3=O)cc2)cc1 (stereo not given)	-1	-3	2.9	0	1	i	14	1.1	-4	1.9
COc1ccc(OC)c(NC(=O)C2CCCCC2)c1	4	-5	2.5	0	-2	/	1	2.7	-15	0.3
COCC1CCN(Cc2cn(C)nc2-c2cccc(Cl)c2)C1 (stereo not given)	12	-1	0.8	-7	-1	i	-3	?	-4	1.6
O=c1cc(CNc2cc(C(F)(F)F)cc(C(F)(F)F)c2)nc2sccn12	7	-18	16	7	-1	i	1	1.5	10	1.8
CSC1=NCCN1C(=O)c1ccc(S(=O)(=O)N2CCCC2)cc1	16	10	3.8	1	0	i	-4	5.9	5	-1.6
CCOc1ccc(NC(=O)CN(C)C(=O)c2c(-c3ccccc3Cl)noc2C)cc1OCC	1	-11	-0.1	5	-6	i	-3	0.4	10	1.4
CCCCN(C(=O)CSc1nncn1-c1ccccc1OC)c1c(N)n(Cc2ccccc2)c(=O)[nH]c1=O	/	/	/	-2	-4	/	-2	7.0	-1	-0.9
c1ccc(Cn2nnnc2C(c2cccnc2)N2CCN(C3CCCCC3)CC2)cc1 (stereo not given)	/	/	/	3	3	/	0	-3.7	-2	/
Oc1cccc(C(=S)N2CCN(Cc3ccccc3)CC2)c1	/	/	/	-4	19	/	-5	-3.6	-10	/
COCCNC(=O)c1ccc(N2CC3CC(C2)c2cccc(=O)n2C3)c(NC(=O)c2ccc(F)cc2)c1 (stereo not given)	5	-2	0.2	-3	-10	i	0	1.4	16	-0.2
CC1=C(SCCC#N)S/C(=C2\SC(C)=C(SCCC#N)S2)S1	/	/	/	3	17	/	-5	2.2	15	/
CCc1nc(N[C@H](C(=O)O)C(C)C)c2oc3ccccc3c2n1	-11	5	-5.7	1	-34	i	22	4.1	-3	-4.5
CC(=O)N1CCc2cc(S(=O)(=O)CCC(=O)NCc3ccc4c(c3)OCO4)ccc21	/	/	/	2	-10	/	0	?	-19	/
COc1c2ccoc2c(OC(C)=O)c2oc(C)cc(=O)c12	-8	-16	-3.9	-3	-18	i	3	2.0	-5	-1.0
Cc1cc(=O)[nH]c(SCC(=O)c2ccc(C(C)C)cc2)n1	/	/	/	-3	98*	/	17	?	3	/
COC(=O)c1cc(Nc2cc(C)c3c(O)cccc3n2)cc(C(=O)OC)c1	-20	-17	5.4	6	-15	i	6	4.5	15	-3.9
O=C(O)CCCC(=O)N1CCc2cc(S(=O)(=O)NCc3ccccc3)ccc21	5	3	1.5	-7	-11	i	9	-2.6	-5	-0.6
OC1(c2ccccc2)CN(c2ccccc2)C2=[N+]1CCS2 (stereo not given)	/	/	/	-4	/	i	-2	1.1	3	1.9
COc1ccc(-c2nn(Cc3ccccc3)cc2C(=O)N2CCN(c3ncccn3)CC2)cc1OC	-4	-2	0.5	-4	-19	i	/	/	/	-1.2
CC(C)C[C@H](CO)Nc1nc(Nc2cccc(Cl)c2)c2ncn(C(C)C)c2n1	1	-1	0.6	4	-7	i	4	-0.6	52	-11
(cont.)
SMILES	Ecoli rRNA inh	Ecoli rRNA inh OD600	Ecoli rRNA inh RFP	Beta cell apopt	ALR H2O2 inh	FGF22 binding	Calb FLC	RanGTP-Imp inh	T cruzi repl	AF4-AF9 inh
CC(=O)NC(=S)Nc1ccc(NC(=S)NC(=O)c2cccs2)cc1	5	4	0.6	-7	-4	i	1	1.2	11	-0.9
CCCc1[nH]nc2c1C(c1cn[nH]c1-c1ccc(F)cc1)C(C#N)=C(N)O2 (stereo not given)	/	/	/	-21	31	/	-2	1.4	-18	/
O=C(Cc1ccccc1)Nc1ccc(Br)c(Cl)c1	-13	-11	2.9	-10	-7	i	4	10	-25	6.3
COc1ccccc1N(CC(=O)N1CCC(C(N)=O)CC1)S(=O)(=O)c1ccccc1	1	1	-1.0	-4	/	i	2	-1.0	4	-1.6
Cc1nc(NC(=O)C2CC2)sc1C(=O)NC1CCCCC1	8	9	2.0	/	-5	i	20	8.0	15	0.0
CC(NC(=O)N1CCOCC1)c1ccccc1 (stereo not given)	12	12	-1.7	-2	-12	i	2	-0.9	-5	0.9
O=C(OCC(=O)N1CCCC1)c1ccc(NS(=O)(=O)c2cccs2)cc1O	-8	-3	-0.3	-2	2	i	2	-2.5	-1	-1.3
CCC(C)NC(=O)CCCc1ccccc1 (stereo not given)	/	/	/	/	0	/	-12	-0.3	-15	/
O=[N+]([O-])c1ccc(-c2ncc(-c3ccc(Br)cc3)o2)cc1	7	12	-4.0	-4	/	i	3	-16	14	2.2
CC(c1ccccc1)n1c(S(=O)(=O)O)nc2ccccc21 (stereo not given)	4	1	0.9	-5	-13	i	7	1.6	-11	-4.0
CCCSc1nnc(CNC(=O)C23CC4CC(CC(C4)C2)C3)n1Cc1ccccc1	-20	-23	37	-8	-12	i	-15	6.7	46	2.3
O=[N+]([O-])c1cc(/C=N/Nc2nc(N3CCCCC3)nc(N3CCCCC3)n2)ccc1O	20	13	-6.0	1	1	i	5	-1.4	13	13
COc1ccc(C(=O)NCCONC(=O)c2ccc(OC)cc2)cc1	3	2	0.8	-1	-7	i	-8	-3.0	-10	-2.2
COc1ccc(CCNC(=O)c2ccc(S(=O)(=O)N(C)c3ccccc3)cc2)cc1OC	-12	-25	-1.9	/	-9	i	-4	0.0	1	2.1
CCc1ccc(N2C(=O)C(Cl)=C(N3CCCCCC3)C2=O)cc1	19	15	2.4	15	-2	i	-4	-1.8	1	12
COc1cc2cc(Oc3ccc4ccc(=O)oc4c3)c(=O)oc2cc1OC(=O)/C=C/c1ccccc1	15	5	1.1	-5	-2	i	9	-0.2	-9	-0.5
Cc1ccc(-c2csc3ncn(CC(N)=O)c(=O)c23)cc1C	11	6	1.4	1	4	i	15	1.4	-2	-0.1
CN(C)C(=O)N1CCC(C(=O)NCc2ccccc2)CC1	/	/	/	-3	13	/	-7	-1.1	-16	/
CC(=O)c1ccc(NC(=O)CSc2nnc(NC(=O)CN3CCOCC3)s2)cc1	/	/	/	-10	/	/	1	2.9	-7	/
O=C(NCc1cccs1)c1ccccc1[N+](=O)[O-]	9	4	-2.6	-1	-4	i	5	-0.1	-11	2.1
